Screens (PubChem BioAssay)
Vaccinia mCherry – inhibitors of vaccinia virus infection (mCherry reporter signal). actives 0.63% (n = 310,000). Potency, µM (highest dose often 36.5 µM), inactives show at the highest dose activity change, negative = inhibition, actives largely listed as inhibitors. Vaccinia virus mCherry reporter infection, fluorescence; about a quarter of the inactives have no number; active = well fitted inhibition curve with a large enough effect; inconclusive = small, poorly fitted or top-dose-only effect; inactive = no such curve, though single readings can be large or run the other way; tested in A549 cells; note: nearly all actives have a fitted effect of over 35% in size; inactives centre near -10
VACV Venus inh – vaccinia inhibition (Venus reporter) | Potency, µM (doses to about 36.5 µM), for the others: at the top dose activity change, negative = inhibition, actives largely listed as inhibitors | AID 720580 | Vaccinia virus Venus reporter expression, fluorescence | actives 0.46% (n = 330,000); active means well fitted inhibition curve with a large enough effect; inconclusive means small, poorly fitted or top-dose-only effect; inactive means no such curve, though single readings can be large or run the other way; tested in A549 cells; note: nearly all actives have a fitted effect of over 30% in size; inactives centre near -10
An asterisk follows results filed as active; i = inactive; ? = inconclusive; · = no result given; & = joins results of further samples; [ ] = another dose, or the depositor's remark. % is set by controls: 0 for no effect and ±100 for the full control effect; potency is the fitted concentration of half-maximal effect.

| SMILES | Vaccinia mCherry | VACV Venus inh |
| --- | --- | --- |
| CCN(CC(=O)NCc1cccnc1)S(=O)(=O)c1ccc(OC)cc1 | i | -18% |
| CCOC(=O)c1cc2nc(-c3ccccc3)cc(C)n2n1 | i | -3% |
| COc1ccc(NC(=O)C/C(C)=N/NC(=O)C2CCCCC2)c([N+](=O)[O-])c1 | 0% | -11% |
| Cc1ccc(S(=O)(=O)c2nc(-c3ccco3)oc2SC(C)C)cc1 | -22%&-9% | -5%&-2% |
| CCC(C(=O)Nc1cc(C)ccc1OC)n1nnc(C(=O)OC)c1C(=O)OC (centres undefined) | 1% | -1% |
| CCCc1cnc(N2CCN(S(=O)(=O)c3cccs3)CC2)nc1 | -9% | 6% |
| CCOC(=O)c1cnc2nc(N3CCOCC3)nn2c1N | -13% | -5% |
| Nc1nc(/C(=C/CC(=O)O)C(=O)N[C@@H]2C(=O)N3C(C(=O)O)=CCS[C@H]23)cs1 | -16% | -7% |

The list continues:
| SMILES | Vaccinia mCherry | VACV Venus inh |
| --- | --- | --- |
| COc1ccc2cc(N3CCCC3=O)ccc2c1 | -23% | -4% |
| COc1ccc(CNC(=O)c2ccc(-c3nc(CSc4ccc(C)cc4)c(C)o3)cc2)cc1OC | -5% | 3% |
| CC1CC2(CCCCC2)Nc2c1ccc1ccccc21 (centres undefined) | · | -4% |
| CCCCN(C=O)c1c(CC)nc2c(OCc3cccc(Cl)c3)cccn12 | ? | ? |
| CC1(C(=O)NCCc2ccccc2)Cc2c(-c3ccc(C(N)=O)cc3)ccnc2O1 (centres undefined) | i | -22% |
| Cc1cc(C)c2[nH]c(=O)c(CN(Cc3ccco3)C(=S)NCC3CCCO3)cc2c1 (centres undefined) | 0% | -5% |
| S=C(c1ccc(-c2ccccc2Cl)o1)N1CCCCC1 | ? | -12% |
| CCc1cc(=O)oc2c3c(cc(OCC(=O)NCc4ccncc4)c12)OC(C)(C)CC3 | -10% | -12% |

(cont.)
| SMILES | Vaccinia mCherry | VACV Venus inh |
| --- | --- | --- |
| COc1cc2c(c(OC)c1OC)-c1ccc(NC(=O)c3ccccc3)c(=O)cc1[C@@H](NC(C)=O)CC2 | -11% | -2% |
| O=C(Cc1cccs1)NCc1cc(Cl)cc(Cl)c1 | 0% | -10% |
| CC(=O)Nn1cc2c(=O)n(C)c(=O)n(C)c2c1 | -2% | 0% |
| N/C(=N\OC(=O)c1cccnc1)c1ccccc1Cl | -14% | 0% |
| COCCCN1C(=O)C(O)=C(C(=O)c2ccco2)C1c1ccccc1 (centres undefined) | · | -22% |
| C[C@@H]1CN([C@H](C)CO)C(=O)c2cc(Br)cnc2O[C@@H]1CN(C)C(=O)C1CCOCC1 | -4% | -6% |
| N#Cc1ccccc1CSc1nc(O)cc(=O)[nH]1 | -11% | 2% |
| O=C(NC1CCCc2ccccc21)c1ccc(CNc2c(N3CCOCC3)c(=O)c2=O)cc1 (centres undefined) | -11% | -8% |

(next part)
| SMILES | Vaccinia mCherry | VACV Venus inh |
| --- | --- | --- |
| COC(=O)c1ccc(OCCOCCOc2cccc3ccc(C)nc23)cc1 | -2% | -13% |
| C#CCOC(=O)CN1C(=O)c2cccc3cccc(c23)C1=O | -8% | -1% |
| CCn1cc(C(=O)NC(=S)Nc2cccc(O)c2)cn1 | · | -4% |
| CCOC(=O)c1sc2nc3c(cc2c1N)COC(C)(C)C3 | ? | ? |
| CN1/C(=C\C(=O)C(F)F)C(C)(C)c2ccccc21 | · | -14% |
| O=C(NCCCN1CCCCC1)C1CCC(CNS(=O)(=O)c2cccc3nsnc23)CC1 (centres undefined) | -7%[7.34 µM] | -2%[7.34 µM] |
| CC(=O)[C@@H]1[C@@H](C(=O)c2ccc(F)cc2)[C@]2(C(=O)Nc3ccccc32)[C@H]2C=Cc3cc(F)ccc3N12 | -8% | -4% |
| Cc1ccccc1N1CC(C(=O)N2CC(C)CC(C)C2)CC1=O (centres undefined) | -14% | -8% |

(further entries)
| SMILES | Vaccinia mCherry | VACV Venus inh |
| --- | --- | --- |
| O=C(NC1CCCC1)c1ccc(CSc2nc3ccncc3n2Cc2cccc(F)c2)cc1 | ? | ? |
| Cc1nc2ccc(NC(=O)c3ccc([N+](=O)[O-])cc3)cc2[nH]1 | -12% | -8% |
| CC(C)CCN(C(=O)CNC(=O)c1ccco1)C(C(=O)NC1CCCCC1)c1cccnc1 (centres undefined) | -9% | -3% |
| Cc1ccccc1CN1CCNC(=O)C1CC(=O)NCCC1=CCCCC1 (centres undefined) | -5% | -5% |
| Cc1cc(-c2ccccc2)nc(N2CCN(c3ccccn3)CC2)n1 | -6% | 29% |
| O=[N+]([O-])c1ccc2c(c1)Cc1cc(F)ccc1-2 | -3% | 2% |
| Cc1cc(C)n(-c2nnc(Nc3ccc(C(C)C)cc3)c3ccccc23)n1 | -14% | -16% |
| O=C(c1cccs1)N(c1ccc(Cl)cc1)C1C=CS(=O)(=O)C1 (centres undefined) | 0% | -5% |

(cont.)
| SMILES | Vaccinia mCherry | VACV Venus inh |
| --- | --- | --- |
| COc1ccc(CNCc2c(C(=O)O)c(C)n(Cc3ccccc3C)c2C)c(OC)c1 | -18%[7.34 µM] | -8%[7.34 µM] |
| CC(C)=CCN1CCN(Cc2cccn2-c2ccccn2)CC1CCO (centres undefined) | i | 0% |
| COc1ccc(CNC(=O)CSc2nccn(-c3ccc(F)c(F)c3)c2=O)cc1 | i | -11% |
| O=C1CCC(/C=C/c2ccccc2)=NN1Cc1ccccc1Cl | · | -10% |
| COc1cc(/C=N/NC(=O)c2csc3c2CCCC3)cc(OC)c1O | i | -11% |
| CCNC(=S)NNC(=O)c1c(Cl)c(C)nn1C | -11% | 9% |
| O=C1CC(c2ccc(Cl)cc2)c2cc3c(cc2N1)OCCO3 (centres undefined) | -13% | -14% |
| CCn1c(/C=C2\C(=O)N(C(C)C)c3ccccc32)nc2ccccc2c1=O | ? | -28% |

(next part)
| SMILES | Vaccinia mCherry | VACV Venus inh |
| --- | --- | --- |
| CNc1nc2ccccc2n1N | -13% | 7% |
| CCc1ccc(C(=O)NCc2ccc(Cl)cc2)cc1 | -8% | -9% |
| NC(=O)c1ccccc1N(Cc1ccccc1)S(=O)(=O)c1ccccc1 | i | -2% |
| Cc1cccc[n+]1CC(=O)Nc1ccc([N+](=O)[O-])cc1Cl | -12% | -6% |
| NS(=O)(=O)c1cc(C(=O)Nc2ccc3c(c2)OCCCO3)ccc1Cl | -9% | 5% |
| COc1ccc(NC(=O)CS(=O)(=O)c2ccc(F)cc2)cc1 | -23% | 6% |
| O=C(NCc1ccncc1)C(=O)NCC1OCCN1S(=O)(=O)c1ccc(F)cc1 (centres undefined) | -13% | -7% |
| CCCNC(=O)c1ccc(Cn2c(SCC(=O)NC(C)C)nc3ccccc3c2=O)cc1 | 1% | -5% |

More structures
| SMILES | Vaccinia mCherry | VACV Venus inh |
| --- | --- | --- |
| Cc1cc(C)n2nc(C(=O)OCC(=O)c3ccc(F)cc3)nc2n1 | -1% | -15% |
| O=C(CCCCC(=O)NNC(=O)COc1ccccc1)NNC(=O)COc1ccccc1 | -24% | -4% |
| CN(CCOc1ccc(CC2SC(=O)NC2=O)cc1)c1ccccn1 (centres undefined) | -11%&-8%&-10% | 5%&-4%&-7% |
| COc1ccc(-c2cc(C(F)(F)F)nc(SCC(=O)Nc3ccc(C(C)=O)cc3)n2)cc1 | -22% | -11% |
| COc1ccc(S(=O)(=O)n2nc(-c3ccc(Cl)cc3)cc2N)cc1OC | -24% | -16% |
| COc1ccc(-n2c(C)ccc2C)c([N+](=O)[O-])c1 | -10% | -14% |
| O=C(O)C(CCCCNS(=O)(=O)c1ccc(F)cc1)NS(=O)(=O)c1ccc(F)cc1 (centres undefined) | -4% | -3% |
| O=C(NCc1ccc(F)cc1)C(c1ccncc1)N(C(=O)c1csnn1)C1CC1 (centres undefined) | -9% | -5% |

More structures follow:
| SMILES | Vaccinia mCherry | VACV Venus inh |
| --- | --- | --- |
| O=C(CCC(=O)N1CCOc2ccccc21)NCCCN1CCN(Cc2ccccc2)CC1 | ? | -9% |
| Cc1cccc(C(=O)NCCN(C)C)c1 | · | -22% |
| Cc1ccc(S(=O)(=O)N2CC(O)CC2C(=O)OCC(=O)Nc2ccc([N+](=O)[O-])cc2C(F)(F)F)cc1C (centres undefined) | -11% | 0% |
| Cc1cc(C)c(S(=O)(=O)N2CCCC(C(=O)N3CCCC3)C2)c(C)c1 (centres undefined) | -29% | -19% |
| Cn1c(N)c(C(=O)CCl)c(=O)n(Cc2ccccc2)c1=O | -31% | ? |
| C=C(C)c1cccc(C(C)(C)NC(=O)N2CCC(C)CC2)c1 | -25% | -10% |
| CCOC(=O)N1CCN(C(=O)c2ccc3c(c2)NC(=O)C(N2CCOCC2)S3)CC1 (centres undefined) | -7% | -4% |
| O=S(=O)(NC(=NC1CCCCC1)c1ccccc1)c1ccccc1 | -2% | -12% |

Whole records as entered above. Order of screens: Vaccinia mCherry | VACV Venus inh
Listed for C=C(C)c1cccc(C(C)(C)NC(=O)N2CCC(C)CC2)c1 : -25% | -10%
Listed for Cc1cc(C)c(S(=O)(=O)N2CCCC(C(=O)N3CCCC3)C2)c(C)c1 (centres undefined) : -29% | -19%

Next part.
| SMILES | Vaccinia mCherry | VACV Venus inh |
| --- | --- | --- |
| Cc1ccc(Nc2c(-c3ccc(C)s3)nc3cccc(C)n23)cc1 | -23% | -13% |
| CCN1CCN(Cc2ccc(NC(=O)c3cc(NC(=O)C(=O)c4c[nH]c5ccccc45)cc(OC)c3)cc2C(F)(F)F)CC1 | ? | 10µM* |
| C=C(C)c1nc(N)nc(N)n1 | · | -29% |
| COc1cc(C(=O)N=c2sccn2C)c([N+](=O)[O-])cc1OC | -15% | -9% |
| COc1ccc(NC(=O)C2CCCN2c2nn3c(=O)cc(C)nc3s2)cc1 (centres undefined) | -3% | -16% |
| COc1ccc(S(=O)(=O)N2CCN(c3ccc(C)cc3C)CC2)cc1OC | -14% | -10% |
| COC(=O)c1sc(S(=O)(=O)Nc2ccc(C)c(C)c2)c(C(=O)OC)c1C | -18% | -15% |
| COc1cc(OC)cc(C(=O)Nc2nc(CC(=O)NCCc3ccccc3)cs2)c1 | ? | -26% |

Ordered by SMILES length (high to low): part of the list above
| SMILES | Vaccinia mCherry | VACV Venus inh |
| --- | --- | --- |
| CCN1CCN(Cc2ccc(NC(=O)c3cc(NC(=O)C(=O)c4c[nH]c5ccccc45)cc(OC)c3)cc2C(F)(F)F)CC1 | ? | 10µM* |
| Cc1ccc(S(=O)(=O)N2CC(O)CC2C(=O)OCC(=O)Nc2ccc([N+](=O)[O-])cc2C(F)(F)F)cc1C (centres undefined) | -11% | 0% |
| COc1ccc(-c2cc(C(F)(F)F)nc(SCC(=O)Nc3ccc(C(C)=O)cc3)n2)cc1 | -22% | -11% |
| O=C(O)C(CCCCNS(=O)(=O)c1ccc(F)cc1)NS(=O)(=O)c1ccc(F)cc1 (centres undefined) | -4% | -3% |
| CCOC(=O)N1CCN(C(=O)c2ccc3c(c2)NC(=O)C(N2CCOCC2)S3)CC1 (centres undefined) | -7% | -4% |
| COC(=O)c1sc(S(=O)(=O)Nc2ccc(C)c(C)c2)c(C(=O)OC)c1C | -18% | -15% |
| O=C(CCC(=O)N1CCOc2ccccc21)NCCCN1CCN(Cc2ccccc2)CC1 | ? | -9% |
| Cc1cc(C)c(S(=O)(=O)N2CCCC(C(=O)N3CCCC3)C2)c(C)c1 (centres undefined) | -29% | -19% |
| COc1ccc(S(=O)(=O)n2nc(-c3ccc(Cl)cc3)cc2N)cc1OC | -24% | -16% |
| COc1ccc(S(=O)(=O)N2CCN(c3ccc(C)cc3C)CC2)cc1OC | -14% | -10% |
| COc1cc(C(=O)N=c2sccn2C)c([N+](=O)[O-])cc1OC | -15% | -9% |
| Cc1ccc(Nc2c(-c3ccc(C)s3)nc3cccc(C)n23)cc1 | -23% | -13% |
| C=C(C)c1cccc(C(C)(C)NC(=O)N2CCC(C)CC2)c1 | -25% | -10% |
| Cn1c(N)c(C(=O)CCl)c(=O)n(Cc2ccccc2)c1=O | -31% | ? |
| COc1ccc(-n2c(C)ccc2C)c([N+](=O)[O-])c1 | -10% | -14% |
| Cc1cccc(C(=O)NCCN(C)C)c1 | · | -22% |
| C=C(C)c1nc(N)nc(N)n1 | · | -29% |

The list goes on.
| SMILES | Vaccinia mCherry | VACV Venus inh |
| --- | --- | --- |
| CC1(OC(=O)CCc2ccccc2)C(=O)C=C2C=C(c3ccc(C#N)cc3)N(CCc3c[nH]c4ccccc34)C=C2C1=O (centres undefined) | ? | -14% |
| CSc1nnc(NC(=O)c2ccco2)s1 | i | -17% |
| COc1ccc(CC(=O)Oc2cc(C)[nH]c(=O)c2[N+](=O)[O-])cc1 | -12% | 6% |
| O=C(NCc1cccc(F)c1)c1cccc2c1C(=O)c1ccc(N3CCCC3)cc1S2(=O)=O | -16% | -8% |
| COc1cccc2cc(C(N)=O)oc12 | -11% | -14% |
| CCOc1ccc(C2CC(=O)NC3=C2C(=O)CCC3)cc1Cl (centres undefined) | · | -26% |
| CN(Cc1cccc(Cl)c1Cl)C(=O)CCNC(=O)c1ccco1 | -16% | -7% |
| Cc1ccc(S(=O)(=O)NCC2CCC(C(=O)NCCCN3CCCC3=O)CC2)cc1 (centres undefined) | i | -13% |

This is a random part of the collection (roughly 0.88% active in at least one column).
